Source: PubChem BioAssay (several laboratories)
FGF22 binding – FGF22 (human) thermal shift binding; Q9HCT0; recombinant FGF22 thermal shift, SYPRO orange fluorescence; percent of sucrose octasulfate shift, DMSO zero; calls only at 9.99 µM; 340,000 compounds, 1.5% hits; AID 651658;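 active = melting point raised past a set limit in the mean and every replicate; inconclusive = no clear call; three in four hits are not shown here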
Target sequence (Q9HCT0 whole entry, looked up): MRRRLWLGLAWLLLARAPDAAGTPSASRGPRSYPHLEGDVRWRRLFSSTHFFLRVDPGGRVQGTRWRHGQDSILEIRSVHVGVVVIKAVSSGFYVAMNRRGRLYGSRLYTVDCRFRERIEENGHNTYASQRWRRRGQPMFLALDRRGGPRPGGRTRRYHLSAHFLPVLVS
E coli growth – E. coli growth inhibition; 330,000 compounds, 0.21% hits; OD600 absorbance (no concentration beside the values); Escherichia coli growth, OD600, 23 h; stronger effect = lower value;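 active = OD600 absorbance below the run mean of sample wells minus 3.6 SD, in any replicate, cut at about 0.56 in these data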;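 note: stock transfer was 300 nL into about 60 µL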
Beta2AR agonist – human beta-2 adrenergic receptor agonism by FAP | P07550 | Am2.2-beta2AR cells, FAP receptor internalization, flow cytometry; reference of the scale not given here | response, % (concentration not given with the values) | 340,000 compounds, 0.43% hits | AID 504454;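 active = response above a set limit, near 3 SD of response in nonfluorescent compounds, cut at about 42% in these data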;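 note: stock transfer was 100 nL into about 11 µL; a reference agonist was the positive control; negative values mostly stem from fluorescent compounds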
Ecoli rRNA inh – inhibitors of bacterial rRNA selective over humanized ribosomes; E. coli WT GFP vs humanized-ribosome RFP mutants, fluorescence, 24 h; stronger effect = lower value; DMSO median 0, no signal -100; GFP signal change (wild-type ribosome), % (test concentration not listed); 350,000 compounds, 1.6% hits; AID 720706;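 active = significant combined selectivity score with lowered wild-type GFP, culture density cut under 30%, mutant RFP and density less affected; inactive = any of these conditions unmet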; note: one replicate is shown; some compounds called inactive have numbers as strong as hits
HNF4A DNA FP – change in binding of human HNF4 alpha to DNA; P41235; HNF4a-FITC DNA binding, fluorescence polarization, 1 h; activity change, % at 10 µM; 360,000 compounds, 0.3% hits; in the data active = activity change above about 30%, passing the limit was not always enough;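 note: controls were the assay level and a saturating level of protein; the project sought stronger binding though the title names inhibitors; some compounds called inactive have numbers as strong as hits; positive values seem to mean higher polarization but the record does not say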
ALR inh – blocks human ALR sulfhydryl oxidase activity; AID 485317; inhibition, % (concentration not given with the values); 290,000 compounds, 3.8% hits; purified ALR, DTT oxidation, H2O2 HRP-luminol luminescence;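 active = mean and each replicate at 75% or more; inconclusive = only one of the two met; inactive = neither met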;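 note: stock transfer was 7.5 nL into about 7.5 µL; 0% = neutral wells and 100% = wells with inactivated enzyme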
Target sequence (P55789 whole entry, looked up): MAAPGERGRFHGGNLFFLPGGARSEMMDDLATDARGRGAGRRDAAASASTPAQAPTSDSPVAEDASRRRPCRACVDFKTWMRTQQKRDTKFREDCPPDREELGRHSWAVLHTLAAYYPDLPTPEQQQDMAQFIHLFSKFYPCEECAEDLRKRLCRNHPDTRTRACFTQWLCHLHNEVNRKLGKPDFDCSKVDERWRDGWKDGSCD
UCH37 DUB inh – human UCH37 deubiquitinating enzyme inhibition; inhibition, % (concentration not given with the values); purified proteasome/UCH37, Ub-AMC cleavage fluorescence; 330,000 compounds, 0.33% hits; Q9Y5K5;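 active = mean of two replicates above 20%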;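 note: 0% = compound-free wells with enzyme and 100% = wells lacking proteasome; stock transfer was 100 nL into about 20 µL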
Target sequence (Q9Y5K5 whole entry, looked up): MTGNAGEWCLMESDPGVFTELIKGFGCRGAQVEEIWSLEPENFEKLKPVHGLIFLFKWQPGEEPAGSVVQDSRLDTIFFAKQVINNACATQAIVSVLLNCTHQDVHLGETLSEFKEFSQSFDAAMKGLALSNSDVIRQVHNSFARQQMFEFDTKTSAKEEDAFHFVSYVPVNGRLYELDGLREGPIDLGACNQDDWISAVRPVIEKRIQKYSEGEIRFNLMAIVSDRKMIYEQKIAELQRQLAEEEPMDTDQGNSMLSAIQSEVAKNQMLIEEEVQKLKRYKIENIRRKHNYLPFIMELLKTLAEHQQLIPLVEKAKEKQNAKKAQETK
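system = Proteasome-associated human UCH37 deubiquitinase | amount = 0.15 nM proteasome as dispensed | medium = pH 7.4 Tris-HCl (50 mM) with ovalbumin, ATP-MgCl2, DTT | incubation = 30 min preincubation with enzyme, 25 min cleavage at room temperature | detection = AMC fluorescence 355/460 nm | read-out basis = percent inhibition | controls = no-proteasome and no-compound wells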
Ecoli rRNA inh OD600 – further read-out of Ecoli rRNA inh, marked with its call; OD600 change, %; measured here: OD600 growth;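 optical density of the mix in the first replicate; 0 = DMSO median and -100 = no signal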
Ecoli rRNA inh RFP – second read-out of Ecoli rRNA inh, no call of its own (marks repeat the call); RFP signal change, %; measured here: RFP humanized mutant strains;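 first replicate; 0 = DMSO median and -100 = no signal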
* = called active by the depositor; i = inactive; ? = inconclusive; / = no result given; + = active, no number; & = joins results of further samples.

SMILES | FGF22 binding | E coli growth | Beta2AR agonist | Ecoli rRNA inh | Ecoli rRNA inh OD600 | Ecoli rRNA inh RFP | HNF4A DNA FP | ALR inh | UCH37 DUB inh
COc1cccc(N(C(=O)c2cccs2)c2nc3ccccc3s2)c1 | / | 0.713 | 2.8 | / | / | / | 1.8 | -5.1 | -0.6
CCOc1ccccc1CNn1cnnc1SCC(=O)NC(C)(C)C | i | / | / | 4.2 | 7.6 | -1.2 | -0.8 | / | /
COC(=O)c1sccc1NC(=O)c1cccs1 | i | 0.628 | -1.8 | 13.3 | 16.4 | 0.7 | 0.9 | -8.0 | -2.0
CCN(CC(=O)NCc1ccc(Cl)cc1)C(=O)/C=C/c1ccc(Cl)c([N+](=O)[O-])c1 | i | 0.654 | 2.2 | -1.0 | 4.2 | 0.9 | 0.4 | -0.1 | -0.1
COC(=O)Nc1ccc(S(=O)(=O)N2CCCC(C(=O)NC3CCCCC3)C2)cc1 (stereo unspecified) | i | 0.653 | 1.6 | 3.9 | 13.3 | -3.3 | 1.2 | 50.5 | 0.6
O=C(O)c1ccc([N+](=O)[O-])cc1-c1cc([N+](=O)[O-])ccc1C(=O)O | i | 0.661 | -3.8 | 2.9 | 15.2 | -1.3 | -2.5 | / | 0.4
CC1CCN(S(=O)(=O)c2ccc([N+](=O)[O-])cc2)CC1 | i | 0.743 | -6.1 | 3.0 | 7.6 | -0.9 | 1.9 | -22.6 | 4.0
Cc1ccc2c(CC(=O)NC3CCCc4ccccc43)coc2c1 (stereo unspecified) | / | 0.671 | 1.4 | / | / | / | -1.3 | -40.8 | -1.8
CC1CCN(C(=O)CN2C(=O)NC3(CCCCCC3)C2=O)CC1 | i | 0.69 | -10.4 | 2.9 | 7.2 | -1.7 | 0.8 | -5.2 | 3.7
O=C(CCc1nc(-c2ccccc2Cl)no1)NCCc1ccccc1 | i | 0.679 | -2.9 | 2.1 | 14.7 | 3.5 | 2.1 | -2.4 | 2.7
CC1CCCCC1NC(=O)CN1C(=O)CSc2cc(S(=O)(=O)N3CCCCCC3)ccc21 (stereo unspecified) | i | 0.67 | 5.3 | / | / | / | -1.0 | / | 2.9
CC(C)c1nc2cc(C(=O)N(C)C3CCOCC3)ccc2o1 | i | 0.715 | -1.2 | -1.2 | 12.3 | -1.2 | -1.5 | -14.2 | 3.4
COC(=O)c1cc(Cl)c(N)cc1OC | / | 0.661 | 0.2 | / | / | / | 3.0 | 1.2 | 6.9
COc1ccc(-n2c(SC(C)C(=O)Nc3ccc(NC(C)=O)cc3)nc3ccccc3c2=O)cc1OC (stereo unspecified) | i | 0.693 | 5.0 | 6.0 | 1.5 | -3.3 | 0.6 | -10.4 | 4.8
Cc1sc2cc(-c3cccc([N+](=O)[O-])c3)c(-c3cccc([N+](=O)[O-])c3)c[n+]2c1C | / | 0.684 | -9.0 | / | / | / | -1.4 | -2.6 | 3.3
C[C@@H]1CN([C@@H](C)CO)C(=O)CCCn2nncc2CO[C@@H]1CN(C)C(=O)c1ccccc1 | i | / | / | 12.8&0.7 | 8.0&9.8 | -1.0&-2.3 | 3.8 | / | /
Cc1cc(C)n(-c2nc3c(c(=O)[nH]c(=O)n3C)n2CC(O)COc2ccccc2)n1 (stereo unspecified) | / | 0.73 | -3.8 | / | / | / | 1.4 | 1.9 | 5.4
CCOC(=O)c1ccccc1NC(=O)c1cccc2c1C(=O)N(C1CCN(C(=O)OCC)CC1)C2 | i | 0.794 | -4.4 | 2.2 | 14.7 | -3.5 | 0.0 | -4.7 | 3.8
Cc1ccc(S(=O)(=O)N(C)C)cc1NC(=S)NC(C)CCCC(C)C (stereo unspecified) | / | 0.682 | 0.8 | / | / | / | -1.9 | / | -0.6
O=C(c1cc(-c2ccccc2)nn1-c1ccccc1)N1CCN(S(=O)(=O)c2c(F)cccc2F)CC1 | i | 0.653 | 9.1 | 13.1 | 22.5 | 0.3 | 1.1 | -1.7 | 0.0
COCC(CN1CCN(C2=NS(=O)(=O)c3ccccc32)CC1)OC(=O)c1ccccc1 (stereo unspecified) | i | 0.706 | -0.6 | 0.7 | 7.1 | -0.5 | -0.4 | / | 1.7
O=C(NNS(=O)(=O)c1ccccc1)C1CCCCC1 | i | 0.666 | -5.9 | 6.2 | 2.0 | 0.8 | 1.4 | 37.5 | -0.2
CSc1nc2[nH]c3c(c2c2nnnn12)CCCC3 | / | 0.707 | -1.1 | / | / | / | -1.7 | / | -67.0
C=C1CCC(OC(C)=O)C2(C)CCC3C(C)C(=O)OC3C12O (stereo unspecified) | i | 0.673 | 3.2 | 1.9 | 6.7 | -1.0 | -6.1 | / | 1.3
COc1ccc(C(CNC(=O)c2ccc(Cl)s2)N2CCOCC2)cc1 (stereo unspecified) | / | 0.64 | -7.9 | 1.6 | 2.4 | -0.7 | 1.8 | -44.1 | 0.3
O=C(CN1CCN(CC(=O)Nc2ccc(-c3ccccc3)cc2)CC1)Nc1ccc(F)cc1 | i | 0.682 | 5.4 | 0.3 | -9.8 | 1.1 | 1.2 | 0.5 | 2.2
Nc1nc(C2CC2)c(Sc2sc(N)nc2C2CC2)s1 | / | 0.745 | 0.8 | / | / | / | -1.1 | 99.0* | 2.7
Cc1ccc(NC(=O)c2ccc3c(=O)n4c(nc3c2)CCC4)cc1S(=O)(=O)N(C)C | i | 0.676 | 25.0 | -8.3 | -12.7 | -0.6 | -3.9 | / | -1.8
CSc1nnc(CNC(=O)C23CC4CC(CC(C4)C2)C3)n1Cc1ccccc1 | i | 0.724 | 4.5 | / | / | / | -2.1 | -11.0 | 4.4
COc1ccccc1OCCNC(=O)C(CCSC)NC(=O)COc1ccccc1 (stereo unspecified) | i | 0.696 | -6.8 | -4.6 | 7.6 | -3.7 | 0.7 | 0.4 | 5.1
O=C(CN(c1ccc(F)cc1)S(=O)(=O)c1ccc2c(c1)OCCO2)Nc1ccc2c(c1)OCO2 | / | 0.742 | 2.6 | / | / | / | 1.8 | -5.1 | 2.0
COc1cccc(C(=O)Nc2cccc(-c3ccc(N4CCOCC4)nn3)c2)c1 | i | 0.686 | 13.1 | 1.1 | 19.3 | -1.1 | -4.8 | / | -1.2
Cc1ccc(-c2cccc(=O)o2)cc1 | i | / | / | 9.9 | -0.2 | -1.5 | -3.4 | / | /
COc1ccccc1C(=O)NC(=O)COC(=O)/C(=C/c1ccccc1)NC(C)=O | i | 0.704 | -5.8 | 7.0 | 13.2 | 1.4 | 1.6 | 12.2 | 4.0
O=C(OCCCc1ccncc1)c1ccc(S(=O)(=O)N2CCOCC2)cc1 | i | 0.714 | 1.2 | 0.0 | -5.6 | -3.6 | 0.3 | 0.3 | -1.4
C/C(CC(=O)NCc1ccco1)=N\NC(=O)c1ccc([N+](=O)[O-])cc1Cl | i | / | 1.1 | -6.6 | 9.0 | -4.3 | 3.4 | / | /
O=C(CSc1nnc2c(n1)[nH]c1ccccc12)Nc1ccc(N2CCOCC2)cc1 | i | 0.693 | 0.2 | -16.8 | -12.3 | -10.2 | -6.8 | -15.4 | 3.3
O=C(CN1CCN(CCC(=O)Nc2ccccc2F)CC1)Nc1ccc(Cl)cc1 | / | 0.686 | -1.8 | / | / | / | -2.8 | / | /
Cc1ccc2nc(-c3ccc(NC(=O)Cc4cccs4)cc3)[nH]c2c1 | + | 0.7 | 11.3 | 1.8 | 2.5 | 10.0 | 0.6 | 0.1 | -269.6
O=c1c2ccccc2ncn1-c1ccc(Cl)c(Cl)c1 | / | 0.726 | 2.5 | 7.5 | 5.8 | 12.4 | 2.6 | 0.9 | 1.3
CC1(C)CC(=O)C2=C(C1)Nc1[nH]n(-c3ccccc3)c(=O)c1C2c1ccc2c(c1)OCO2 (stereo unspecified) | / | 0.685 | -4.1 | / | / | / | -1.6 | / | 13.6
CCc1cc(C)cc(OCCNC(=O)c2cncc(Br)c2)c1 | / | 0.727 | 5.3 | / | / | / | 1.4 | 9.9 | -2.2
O=C(O)c1ccc(S(=O)(=O)N2CCC(Cc3ccccc3)CC2)cc1 | i | 0.676 | 4.9 | -7.0 | -8.7 | -2.2 | 2.6 | -1.8 | 3.1
O=C(Nc1cccnc1)Nc1ccccc1Cl | / | 0.699 | 8.0 | / | / | / | 6.3 | -6.6 | -2.2
Cc1cccc(NC(=O)CN2C(=O)S/C(=C\c3ccc(-c4cccc(C(=O)O)c4C)o3)C2=O)c1 | i | 0.644 | 1.9 | 3.0 | -3.0 | 3.1 | / | -8.4 | -17.5
CCOC(=O)C1CCCN(C(=O)CNS(=O)(=O)c2ccc(Br)s2)C1 (stereo unspecified) | i | 0.744 | 18.7 | -5.8 | -6.5 | -5.5 | 4.0 | / | 0.8
CCOC(=O)/C(C#N)=C/c1ccc(N2CCN(C)CC2)cc1 | / | 0.663 | 0.8 | / | / | / | 5.9 | 36.7 | 4.0
O=C(CNC(=O)c1ccc2c(c1)OCCO2)N/N=C/c1cccc(Br)c1 | i | / | -7.7 | 6.0 | 4.8 | 0.5 | 1.2 | 16.5 | /
CC(C)(C)N1CC23C=CC(C[C@@H]2C1=O)O3 (stereo partly specified) | i | / | 0.9 | 4.7 | 5.7 | 2.0 | 0.2 | 5.1 | 2.1
Cc1cc(C)nc(SCC(=O)OC(C)C(=O)Nc2ccccc2)n1 (stereo unspecified) | i | 0.712 | -3.5 | 0.7 | -6.9 | -2.5 | -3.0 | -1.5 | -3.0
COc1ccc(C(=O)N2CCC(C)(C(=O)NS(=O)(=O)C3CC3)C2)cc1 (stereo unspecified) | i | / | / | 1.6 | 10.2 | -1.8 | 1.1 | / | /
O=C(CSc1ccc([N+](=O)[O-])cc1)Nc1cccc(S(=O)(=O)N2CCOCC2)c1 | i | 0.716 | 1.1 | / | / | / | -2.6 | 4.5 | 7.9
CCNC(=O)C1(C)CCN(C(=O)c2c(F)ccc(C)c2F)C1 (stereo unspecified) | i | / | / | 6.5 | 2.3 | 1.9 | 1.9 | / | /
COc1ccc(NC2c3ccccc3C(=O)N2c2ccccn2)cc1 (stereo unspecified) | i | 0.702 | -5.3 | 2.6 | 3.6 | -1.6 | 2.6 | ? | 2.6
Cc1cc(NC(=O)CCCC(=O)Nc2ccc(F)cc2)no1 | / | 0.679 | 0.5 | / | / | / | -0.7 | -1.3 | -0.1
CCOC(=O)c1[nH]c2ccc(C(=O)OC)cc2c1C(=O)OCC | i | 0.788 | 8.9 | -33.2 | -54.1 | -7.4 | 1.0 | 35.4 | 7.4
O=C(NCc1ccncc1)c1ccc(Oc2ccccc2)cc1 | i | 0.66 | -11.2 | -16.4 | -26.8 | -0.1 | -1.5 | / | 4.5
O=C(CCCC(=O)c1ccc(F)cc1)c1ccc(F)cc1 | i | 0.627 | 11.5 | -19.9 | -12.6 | -3.0 | -0.3 | -6.4 | 2.4
Cc1ccc2c(c1)-c1[nH]c(=S)ncc1CS2 | i | 0.65 | -4.4 | 2.4 | -3.3 | 2.3 | 6.6 | -6.8 | 0.5
CC(=O)Oc1ccccc1C(=O)O | i | 0.685 | -1.3 | / | / | / | 1.5 | -34.8 | 6.7

Record cards, as listed above. Values in the order: FGF22 binding	E coli growth	Beta2AR agonist	Ecoli rRNA inh	Ecoli rRNA inh OD600	Ecoli rRNA inh RFP	HNF4A DNA FP	ALR inh	UCH37 DUB inh
`COc1ccc(NC2c3ccccc3C(=O)N2c2ccccn2)cc1` (stereo unspecified) reads i	0.702	-5.3	2.6	3.6	-1.6	2.6	?	2.6
`CC(C)(C)N1CC23C=CC(C[C@@H]2C1=O)O3` (stereo partly specified) reads i	/	0.9	4.7	5.7	2.0	0.2	5.1	2.1

The list is partial (hit frequency here may not be typical).
